rRNA inh HTS – reduced GFP signal of wild-type E. coli, primary screen, bacterial rRNA inhibitor project, GFP/RFP fluorescence, OD600, single point; E. coli WT GFP vs humanized-ribosome RFP mutants, 24 h; hits give low values; DMSO median 0, no signal -100; GFP signal change (wild-type ribosome), % (test concentration not listed); 350,000 tested, 1.6% active; AID 720706, 2013;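 active = significant combined selectivity score with lowered wild-type GFP, culture density cut under 30%, mutant RFP and density less affected; inactive = any of these conditions unmet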; note: one replicate is shown; some compounds called inactive have numbers as strong as hits
UCH37 inh – inhibitors of human UCH37 deubiquitinase, primary screen, biochemical, Ub-AMC cleavage, fluorescence | AID 588478, 2011 | purified proteasome/UCH37 | Ubiquitin carboxyl-terminal hydrolase isozyme L5 (Homo sapiens), Q9Y5K5 | inhibition, % (test concentration not listed) | 330,000 tested, 0.33% active;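 active = mean of two replicates above 20%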;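 note: 0% = compound-free wells with enzyme and 100% = wells lacking proteasome; stock transfer was 100 nL into about 20 µL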
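Material: Human UCH37 enzyme supplied as purified proteasome complex | Schedule: 30 min preincubation with enzyme, 25 min cleavage at room temperature | Detection: AMC fluorescence 355/460 nm | Measure: % inhibition of Ub-AMC cleavage fluorescence | Controls: Wells without proteasome as full block, compound-free enzyme plus substrate as uninhibited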
E coli growth – E. coli growth inhibition, primary screen, OD600; OD600 absorbance (no concentration beside the values); Escherichia coli growth, 23 h; hits give low values; 330,000 tested, 0.21% active;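 active = OD600 absorbance below the run mean of sample wells minus 3.6 SD, in any replicate, cut at about 0.56 in these data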;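 note: stock transfer was 300 nL into about 60 µL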
FGF22 binding – binders of human FGF22 protein, primary screen, FGF22 synaptogenesis inhibitor project, biophysical, thermal shift, single point; Fibroblast growth factor 22 (Homo sapiens), Q9HCT0; recombinant FGF22 thermal shift, SYPRO orange fluorescence; percent of sucrose octasulfate shift, DMSO zero; calls only at 9.99 µM; 340,000 tested, 1.5% active; AID 651658, 2012;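 active = melting point raised past a set limit in the mean and every replicate; inconclusive = no clear call; three in four hits are not shown here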
Target sequence (Q9HCT0 whole entry, looked up): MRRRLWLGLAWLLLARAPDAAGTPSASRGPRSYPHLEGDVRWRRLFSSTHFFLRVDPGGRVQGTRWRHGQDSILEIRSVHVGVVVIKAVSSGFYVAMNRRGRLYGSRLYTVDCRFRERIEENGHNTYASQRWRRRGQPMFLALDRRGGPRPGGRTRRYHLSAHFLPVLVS
T cruzi repl – inhibitors of intracellular T. cruzi growth, primary screen, luminescence, NIH3T3 host cells; inhibition, % (concentration not given with the values); AID 1885, 2009; 300,000 tested, 1.4% active; T. cruzi beta-gal in NIH3T3, 90 h;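 active = mean inhibition across valid replicates above about 55%, limit read from the data; inconclusive = mean below that limit but half or more replicates reach it; inactive = mean below it, under half of replicates reach it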;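 note: signal also drops with host cell toxicity which is not excluded here; 0% = plate median of DMSO wells and 100% = zero luminescence signal; higher percent means less beta-gal luminescence so fewer parasites; stock transfer was 50 nL into about 50 µL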
AF4-AF9 inh – inhibitors of AF4 peptide binding to AF9, primary screen, biochemical, AlphaScreen, biotin-AF4 peptide, FLAG-AF9, single point. 350,000 tested, 0.47% active. AID 651704, 2012. Protein AF-9 (Homo sapiens), P42568. inhibition, % at 10 µM;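 active = every replicate reaching a set inhibition limit, whatever the replicate mean, cut at about 25% in these data; inconclusive = mean inhibition reaches that limit but some replicates miss it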;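 note: 0% = plate neutral control median and 100% = total signal loss; the record names both 10 and 1 µM as test concentration; the first replicate is given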
Target sequence (P42568 whole entry, looked up): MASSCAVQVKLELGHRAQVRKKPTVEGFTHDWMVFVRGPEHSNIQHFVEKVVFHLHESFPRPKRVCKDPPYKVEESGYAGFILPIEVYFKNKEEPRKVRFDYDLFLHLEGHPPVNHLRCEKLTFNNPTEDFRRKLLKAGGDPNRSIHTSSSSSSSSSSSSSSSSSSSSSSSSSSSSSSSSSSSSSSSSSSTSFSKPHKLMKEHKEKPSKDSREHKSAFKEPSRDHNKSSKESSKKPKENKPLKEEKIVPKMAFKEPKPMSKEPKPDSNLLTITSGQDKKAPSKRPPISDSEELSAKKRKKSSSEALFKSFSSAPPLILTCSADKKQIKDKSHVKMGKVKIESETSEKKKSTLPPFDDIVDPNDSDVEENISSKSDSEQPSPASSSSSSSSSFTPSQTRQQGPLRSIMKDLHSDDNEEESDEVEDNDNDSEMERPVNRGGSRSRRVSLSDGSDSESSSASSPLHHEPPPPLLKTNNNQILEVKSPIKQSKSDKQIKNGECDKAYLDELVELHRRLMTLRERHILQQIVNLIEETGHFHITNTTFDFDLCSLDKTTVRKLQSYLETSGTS
Beta cell apopt – inhibitors of cytokine-induced beta cell apoptosis, primary screen, luminescence | INS-1E cytokine-induced death, ATP luminescence, 48 h; percent of positive-control rescue, neutral wells zero | protection from apoptosis, % (concentration not given with the values) | 300,000 tested, 0.8% active | AID 435005, 2010;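 active = all replicates at 75% or more, or half of them and the mean; inconclusive = half reach 75% but not the mean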;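 note: 0% = cytokine-treated negative control wells and 100% = positive control rescue; higher means more ATP so stronger rescue from cytokine killing; wells of about 40 µL received 100 nL stock; the first replicate is given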
Bfl-1 A1 inh – caspase 3/7 activation in MEF A1-2A-BIM cells, primary screen, A1 inhibitor project, cell-based, luminescence, HTS | Caspase-Glo 3/7 luminescence, 3 h; percent of clofoctol response, vehicle zero | caspase activation, % (test concentration not listed) | 330,000 tested, 0.066% active;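 active = over half of replicate activation scores above 10%, or exactly half above 10 with the replicate mean above 10; inconclusive = replicate mean below 10 yet half the replicates above 10; inactive = over half of replicates below 10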;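 note: wells of about 30 µL received 50 nL stock; many hits fall short of the cut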
rRNA inh HTS OD600 – further read-out of rRNA inh HTS, marked with its call; OD600 change, %; measured here: OD600 growth;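 optical density of the mix in the first replicate; 0 = DMSO median and -100 = no signal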
rRNA inh HTS RFP – further read-out of rRNA inh HTS, marked with its call; RFP signal change, %; measured here: RFP humanized mutant strains;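 first replicate; 0 = DMSO median and -100 = no signal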
Starred values were filed as active, the others as inactive; i = inactive; ? = inconclusive; / = not tested or not shown. An excerpt; rates above refer to the full screens.

1) Cc1ccc(S(=O)(=O)N/N=C\c2ccc(C)o2)cc1
2) O=C(c1cccs1)c1sccc1Cc1ccccc1
3) Cc1sc(NC(=O)CSc2nc(N)cc(N)n2)c(C#N)c1C
4) CCOCCCNC(=O)c1cn(CC)c2ccc(S(=O)(=O)N3CCC(C)CC3)cc2c1=O
5) O=C1NC(c2cccc(Cl)c2)Nc2ccccc21 (stereo not given)
6) CC(=O)Nc1ccc(NC(=O)C(C)OC(=O)c2cccc(S(=O)(=O)N3CCCCC3)c2)cc1 (stereo not given)
Screen / compound no.,1,2,3,4,5,6
rRNA inh HTS,3,-16*,-20,0,-7,2
rRNA inh HTS OD600,-2,-15*,-32,2,-14,-1
rRNA inh HTS RFP,4.9,5.4*,-3.2,-2.3,1.5,-1.0
UCH37 inh,/,1.0,3.2,0.9,-430,1.5
E coli growth,/,0.65,0.72,0.72,0.62,0.71
FGF22 binding,i,i,i,i,i,i
T cruzi repl,-8,/,-15,6,1,1
AF4-AF9 inh,-46,-0.1,7.0,-2.1,-1.7,-0.7
Beta cell apopt,-4,/,0,2,5,-3
Bfl-1 A1 inh,0.2,/,0.4,1.3,0.4,-0.9

7) O=C(O)c1ccccc1C(=O)Nc1ccc(Nc2ccc([N+](=O)[O-])cc2[N+](=O)[O-])cc1
8) COC(=O)c1ccccc1-c1ccc(/C=N/Nc2nc(N3CCCC3)nc(N3CCCC3)n2)o1
9) O=C(Nc1cc2c(cc1Br)OCCO2)c1cccnc1
10) Cc1cccc(OCCn2c(=O)oc3ccc(C)cc32)c1
11) Cc1ccc(S(=O)(=O)NCc2ccccc2)cc1C(=O)NC1CCCCC1
12) Cc1c(C(=O)N2CCOCC2)c(S(=O)(=O)Nc2ccccc2F)c(C)n1C
Screen / compound no.,7,8,9,10,11,12
rRNA inh HTS,10,-9,2,-27*,-11,23
rRNA inh HTS OD600,0,-8,10,-11*,-16,21
rRNA inh HTS RFP,2.8,1.6,-1.4,-1.5*,-1.3,2.1
UCH37 inh,16,/,7.2,2.6,2.5,5.5
E coli growth,0.68,/,0.71,0.68,0.7,0.69
FGF22 binding,i,i,i,i,i,i
T cruzi repl,15,36,-7,-5,-3,0
AF4-AF9 inh,3.9,-8.7,-2.0,0.2,-1.0,-0.9
Beta cell apopt,1,/,0,3,1,/
Bfl-1 A1 inh,-0.2,-0.1,-0.3,-0.7,-0.6,1.2

Part of the list above in another layout.
cpd	molecule	rRNA inh HTS	rRNA inh HTS OD600	rRNA inh HTS RFP	UCH37 inh	E coli growth	FGF22 binding	T cruzi repl	AF4-AF9 inh	Beta cell apopt	Bfl-1 A1 inh
9	O=C(Nc1cc2c(cc1Br)OCCO2)c1cccnc1	2	10	-1.4	7.2	0.71	i	-7	-2.0	0	-0.3
10	Cc1cccc(OCCn2c(=O)oc3ccc(C)cc32)c1	-27*	-11*	-1.5*	2.6	0.68	i	-5	0.2	3	-0.7

New compounds follow.
13) Cc1cc(C)n(CC(=O)NC2C(=O)N3C(C(=O)O)=C(CSc4nnc(C)s4)CSC23)n1 (stereo not given)
14) Cc1oc(C(C)(C)C)cc1C(=O)Nc1cccc(/C=C\C(=O)O)c1
15) COc1ccc(OC)c(-c2cc(C(=O)Nc3c(C)nn(Cc4ccccc4)c3C)no2)c1
16) CC(C)(C)n1cnc2cc(NCc3ccccc3O)ccc21
17) COc1cccc2cc(C(C)N(CCCN3CCOCC3)C(=S)Nc3ccc(C)c(C)c3)oc12 (stereo not given)
18) CC(C)n1cnnc1SCC(=O)Nc1cccnc1Cl
Screen / compound no.,13,14,15,16,17,18
rRNA inh HTS,4,/,/,-1,-5,1
rRNA inh HTS OD600,2,/,/,-8,-8,2
rRNA inh HTS RFP,-1.1,/,/,0.0,1.2,-2.6
UCH37 inh,1.5,0.8,-12,-1.3,2.3,-0.7
E coli growth,0.19*,0.69,0.69,0.65,0.69,0.66
FGF22 binding,i,/,/,i,i,i
T cruzi repl,-2,-2,43,20,-2,/
AF4-AF9 inh,-7.7,/,/,3.4,-11,?
Beta cell apopt,3,-5,18,-1,-3,-1
Bfl-1 A1 inh,0.0,0.7,-0.1,-0.5,1.8,-1.0

19) CCOC(=O)/C(C(N)=NC)=C(\O)c1ccccc1
20) Cc1nnc2ccc(N3CCCC3)nn12
21) COc1ccccc1CNS(=O)(=O)N(C)C
22) O=C(C[n+]1ccc(Cc2ccccc2)cc1)Nc1ccccc1
23) O=C1Nc2ccccc2N=C(c2ccccc2)C1N1CCOCC1 (stereo not given)
24) O=C(Nc1ccc2c(c1)OCO2)C(c1ccccc1)N1CCCCC1 (stereo not given)
Screen / compound no.,19,20,21,22,23,24
rRNA inh HTS,/,/,17,12,/,5
rRNA inh HTS OD600,/,/,6,14,/,-5
rRNA inh HTS RFP,/,/,1.0,-0.6,/,1.1
UCH37 inh,5.3,1.8,-0.2,1.8,1.0,5.4
E coli growth,0.77,0.69,0.66,0.65,0.68,0.72
FGF22 binding,/,/,i,i,/,i
T cruzi repl,-9,-14,-9,-8,10,18
AF4-AF9 inh,/,/,-17,-0.8,/,-4.9
Beta cell apopt,2,-9,/,30,-3,/
Bfl-1 A1 inh,-0.9,1.1,-0.2,-0.1,0.7,1.0

25) Cc1cc(Cl)ccc1NC(=O)CN1C(=O)NC2(CCCC2)C1=O
26) CCCCC1(C)NC(=O)N(CC(=O)Nc2ccc(Cl)cc2C)C1=O (stereo not given)
27) CCN=C1S/C(=C\c2ccc(-c3cccc(C(=O)O)c3)o2)C(=O)N1CC
28) CCc1ccc2[nH]c(=O)c(CN(CCN(CC)CC)C(=O)NC3CCCCC3)cc2c1
29) Cc1cc(NC(=O)NN2CCOCC2)nn1-c1c(Cl)cccc1Cl
30) Cc1cccc(C)c1NC(=O)C(c1ccccc1)N1CCOCC1 (stereo not given)
Screen / compound no.,25,26,27,28,29,30
rRNA inh HTS,7,-14,/,/,/,/
rRNA inh HTS OD600,8,-17,/,/,/,/
rRNA inh HTS RFP,-1.1,-1.4,/,/,/,/
UCH37 inh,-0.4,2.1,-24,-6.5,5.2,2.6
E coli growth,0.69,0.69,0.66,/,0.7,0.69
FGF22 binding,i,i,/,/,i,/
T cruzi repl,-3,/,-38,14,-7,-3
AF4-AF9 inh,0.0,0.4,/,/,2.9,/
Beta cell apopt,-5,-1,-3,-8,/,1
Bfl-1 A1 inh,-0.7,2.3,-4.5,-0.3,2.1,0.6

31) O=C(NCC1CCCCC1)c1cc([N+](=O)[O-])ccc1Cl
32) O=C(CSc1nnc2c(n1)[nH]c1ccccc12)Nc1ccc(S(=O)(=O)Nc2ncccn2)cc1
33) C/C(CC(=O)N1CCN(C=O)CC1)=N\NC(=O)c1ccc(Br)cc1
34) COc1ccc(OC)c(C2=NOC(C(=O)Nc3cc(C)nn3-c3ccccc3)C2)c1 (stereo not given)
35) O=C(COC(=O)c1cccc([N+](=O)[O-])c1)NCc1ccc2c(c1)OCO2
36) COc1cccc2cc(C(=O)C3=C(O)C(=O)N(CCN4CCOCC4)C3c3cccc(Cl)c3)oc12 (stereo not given)
Screen / compound no.,31,32,33,34,35,36
rRNA inh HTS,9,18,16,/,12,-4
rRNA inh HTS OD600,10,22,11,/,17,-10
rRNA inh HTS RFP,-4.5,1.2,4.0,/,0.3,1.8
UCH37 inh,6.5,12,/,-3.5,2.4,5.7
E coli growth,0.67,0.67,/,0.75,0.71,0.69
FGF22 binding,i,i,/,i,i,i
T cruzi repl,15,-8,-16,-3,-8,16
AF4-AF9 inh,1.5,-2.8,-0.8,7.1,-3.4,3.1
Beta cell apopt,8,/,2,-9,-13,3
Bfl-1 A1 inh,0.3,/,-0.7,0.6,-0.3,0.3

37) O=C(Nc1nnc(S(=O)(=O)N2CCOCC2)s1)c1cccc(F)c1
38) Cn1c(SCn2nnc3ccccc3c2=O)nc2ccccc2c1=O
39) O=C(Nc1ccc(F)cc1)C1CCCN(S(=O)(=O)c2cccc3nonc23)C1 (stereo not given)
40) CN(C)C(=O)c1cccn1-c1ncc(C(F)(F)F)cc1Cl
41) O=C(O)CC(C(=O)O)N1C(=O)/C(=C/c2ccc(-c3nc4ccccc4s3)o2)SC1=S (stereo not given)
42) Cc1ccc(C(C(=O)NCc2ccc(F)cc2)N(CCCO)C(=O)C2COc3ccccc3O2)o1 (stereo not given)
43) C/C(=N\NC(=O)c1ccccc1F)c1cccc(NC(=O)c2ccc(C)cc2)c1
44) COc1ccccc1OCc1ccc(C(=O)n2nc(C)c(Cl)c2C)o1
45) COc1ccc(NC2CCCN(C(=O)CSc3ccncc3)C2)cc1 (stereo not given)
Screen / compound no.,37,38,39,40,41,42,43,44,45
rRNA inh HTS,5,/,12,9,/,-10,-6,/,8
rRNA inh HTS OD600,-11,/,16,2,/,-14,2,/,11
rRNA inh HTS RFP,1.4,/,3.2,-1.0,/,-3.5,0.4,/,0.6
UCH37 inh,7.5,4.2,2.2,1.2,11,1.5,/,0.5,0.7
E coli growth,0.78,0.67,0.73,0.68,0.72,0.69,/,0.72,0.69
FGF22 binding,i,/,i,i,/,i,i,/,i
T cruzi repl,-8,-18,10,-11,-4,18,2,2,11
AF4-AF9 inh,-12,/,-2.5,-0.5,/,0.6,-0.3,/,4.3
Beta cell apopt,11,3,2,-8,-5,5,-1,0,0
Bfl-1 A1 inh,-2.8,-0.5,0.1,-0.2,-0.1,-0.5,-0.6,-0.7,-1.5

Looked up above.
AF4-AF9 inh with `O=C(C[n+]1ccc(Cc2ccccc2)cc1)Nc1ccccc1` stands at -0.8
Bfl-1 A1 inh with `COc1ccccc1CNS(=O)(=O)N(C)C` stands at -0.2
rRNA inh HTS with `Cc1sc(NC(=O)CSc2nc(N)cc(N)n2)c(C#N)c1C` stands at -20
Bfl-1 A1 inh with `O=C(Nc1cc2c(cc1Br)OCCO2)c1cccnc1` stands at -0.3
rRNA inh HTS OD600 with `Cc1ccc(S(=O)(=O)N/N=C\c2ccc(C)o2)cc1` stands at -2

Source: PubChem
